High-throughput results as filed in PubChem BioAssay.
Sa growth inh – S. aureus growth inhibition | S. aureus RN4220 growth, OD600, 20 h, 42 °C; stronger effect = lower value | relative growth, % (no concentration beside the values) | 0.53% of 170,000 active;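 active = growth at 42 °C up to 50% and 20 or more points under that at 30 °C, or under 10% at both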;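 note: 300 nL library stock went into each well; scaled to the means of positive and negative controls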
HCMV UL50-53 inh – disrupts HCMV UL50-UL53 complex binding | 0.15% of 190,000 active | inhibition, % (test concentration not listed) | HTRF UL50-UL53 interaction, normalized percent inhibition;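 active = both replicates at 50% or more, plus weaker picks with an unusually low signal ratio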;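 note: stock transfer was 100 nL into about 20 µL; 0% = negative control wells and 100% = wells with untagged competitor protein; inactives centre near -12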
GIV-Gai inh – inhibitors of GIV GBA-motif binding to rat Galpha-i3 | Galpha-i3/FITC-GIV peptide fluorescence polarization, 90 min; stronger effect = lower value; scaled: aluminum fluoride 0%, vehicle 100% | P08753 | percent of control (FP), % (concentration not given with the values) | 0.42% of 210,000 active;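 active = replicate mean at 85% of control or lower, very high polarization wells dropped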;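 note: wells of about 15 µL received 100 nL stock; the first replicate is given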
Target sequence (P08753 whole entry, looked up): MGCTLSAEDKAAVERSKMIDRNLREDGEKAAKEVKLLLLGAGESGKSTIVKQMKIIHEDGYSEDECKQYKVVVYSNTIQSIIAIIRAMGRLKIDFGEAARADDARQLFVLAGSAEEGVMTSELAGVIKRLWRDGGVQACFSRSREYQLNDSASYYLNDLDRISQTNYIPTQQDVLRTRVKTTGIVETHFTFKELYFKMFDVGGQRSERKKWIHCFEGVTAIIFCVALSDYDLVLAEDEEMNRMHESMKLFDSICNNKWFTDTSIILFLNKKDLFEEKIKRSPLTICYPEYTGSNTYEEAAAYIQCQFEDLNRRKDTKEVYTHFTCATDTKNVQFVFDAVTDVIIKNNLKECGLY
Sa growth inh second temp – recorded beside Sa growth inh, whose call it bears; relative growth, %; measured here: growth at 30 °C;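 optical density after 20 h as mean of two plates; 100% = untreated growth and lower means inhibition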
* hit, by the source's call; · = no result given; & = joins results of further samples.

SMILES	Sa growth inh	Sa growth inh second temp	HCMV UL50-53 inh	GIV-Gai inh
CN(C(=O)COC(=O)c1c(F)cccc1Cl)C1CCCCC1	106	101	10	·
Cc1cc(NS(=O)(=O)c2cn(C)c(C)n2)ccc1Br	95	95	·	101
Cc1ccc(-c2noc(-c3cc(-c4ccc(C)cc4C)n[nH]3)n2)cc1	·	·	-8	106
COc1ccc2c(CC(=O)OCC(=O)C(C)(C)C)coc2c1	102	94	8	·
Cc1oc(-c2ccccc2Cl)nc1CSCC(=O)O	87	77	·	98
O=C(c1cc(-c2cccc(Cl)c2)on1)N1CCN(c2ccccc2)CC1	100	88	-18	100
O=C(Cn1ncc2c(=O)oc3ccccc3c21)Nc1ccccc1F	94	88	-16	97
CC(C)Cc1ccc(-c2cc(=O)[nH][nH]2)cc1	98	68	-1	·
Cc1ccc(N=C(NO)c2cnccc2C(F)(F)F)c(C)c1	114	93	-6	106
Cc1cc(-c2ccc(N3C(=O)CCC3=O)c(C)c2)ccc1N1C(=O)CCC1=O	99	104	-18	97
COc1ccc(COC(=O)C2=C(C)NC3=C(C(=O)CCC3)C2c2coc3ccc(C)cc3c2=O)cc1 (stereo not given)	·	·	16	109
Cc1c(Cl)cccc1N1C(=O)C=CC1=O	54	52	-11	·
O=C(O)CSc1nc(-c2ccccc2)c(-c2ccccc2)[nH]1	111&82	86&81	-8&-7	103&103
CCc1sc(-c2c(C#N)c(N)nc3c2CCCCCC3)cc1[N+](=O)[O-]	·	·	-14	104
COc1ccc(C(=O)Nc2ccccc2-c2nc(-c3cccc(C)c3)no2)cc1	·	·	-32	106
O=C(NN1C(=O)/C(=C/c2ccccc2[N+](=O)[O-])SC1=S)c1ccc(Br)cc1	·	·	-29	112
Cc1ccc(-c2cc(-c3coc4ccccc4c3=O)c3c(n2)-c2ccccc2OC3)cc1	113	95	-12	103
Cc1cc(C(F)F)n2nc(C(=O)Nc3cc(Cl)ccc3C)nc2n1	98	95	-35	102
O=C(CSc1ccc2nnc(CCNS(=O)(=O)c3ccccc3)n2n1)Nc1ccc2c(c1)OCO2	103	89	-23	105
O=C(/C=C/c1ccccc1)Nc1nnc(C(F)(F)F)s1	123	105	50	98
CCCCNC(=O)c1sc(-n2[nH]c(C)c(Cc3ccc(C)cc3)c2=O)nc1C	·	·	-34	100
Cc1ccsc1CNc1ccc2[nH]c(=O)[nH]c2c1	90	93	-12&-3	101&104
COc1ccc(C)cc1NC(=O)Cn1cc(C(=O)c2ccncc2)c(=O)c2cc(Cl)ccc21	·	·	-13	104
COc1ccc(C2CC(=O)c3cc(-c4nc(-c5cccc([N+](=O)[O-])c5)cs4)c(=O)n(-c4cccc(C)c4)c3C2)cc1 (stereo not given)	92	81	0	104
CCc1ccc(O)c(C2(O)C(=O)c3ccccc3C2=O)c1	105	102	6	96
CCCCN1CCc2[nH]c(=S)[nH]c(=O)c2C1	110	86	·	110
CCOc1ccc(C(=O)Nc2nnc(SCc3cc(=O)n4ccccc4n3)s2)cc1	99	89	·	100
Cc1ccc2c(c1)CCCN2C(=O)Nc1cccc(C)c1C	99	106	-19	97
CC1=CC(C)C2C(=O)N(c3ccccc3)C(=O)C2C1 (stereo not given)	95	102	-10	106
CCCCn1c(=N)n(CCO)c2ccccc21	88	83	-9	101
CCC(=O)N1CCc2cc(Br)cc(S(=O)(=O)N3CCCC(C(=O)NCc4ccccc4)C3)c21 (stereo not given)	91	101	21	112
Cc1ccccc1Cn1cc(SCC(=O)N2CCCc3ccccc32)c2ccccc21	118	97	·	101
Cc1ccc2onc(CNC(=O)NC3CCCC(C)C3C)c2c1 (stereo not given)	89	84	·	99
Cc1nc(-c2ccc(-n3cc(C(=O)NCc4ccc(Cl)cc4)c(C)n3)cc2)no1	·	·	-37	105
CCOC(=O)C1CCCN(S(=O)(=O)c2ccc3c(c2)CCCN3C(C)=O)C1 (stereo not given)	88	87	·	96
O=C1C2C3C=CC(C3)C2C(=O)N1c1ccc(S(=O)(=O)Nc2nccs2)cc1 (stereo not given)	·	·	-10	99
O=C(O)CCCn1nc(C(F)(F)F)c2c1CCCCC2	96	98	-18	·
COc1ccc(/C=C/c2onc3ccccc23)cc1	·	·	-6	107
CC1=C(C(=O)OCC(F)(F)F)C(c2ccccc2)NC(=O)N1 (stereo not given)	104	97	10	106
COC(=O)COc1ccc2c(=O)c(-c3ccc(Cl)cc3)coc2c1	98	97	·	108
O=C(CCC1CCCC1)Nc1ccc2nc(NC(=O)c3ccccc3)sc2c1	·	·	-20	98
CCNc1nc(N2CCN(C3CCCCC3)CC2)nc2c1cnn2C	·	·	-15	103
Cc1ccc(CNC(=O)c2cnc(N3CCCC3)nc2C)cc1	93	92	·	106
N#Cc1c(C(F)(F)F)cc(-c2cccs2)nc1SCC(=O)Nc1cccc(C(F)(F)F)c1	92	90	-36	169
COC(=O)C(C)N(C#N)c1nc(N(C)C)nc(N(C)C)n1 (stereo not given)	89	78	-25	103
Cc1ccc(N(C)C(=O)C2CCCN2S(=O)(=O)c2ccc3c(c2)n(C)c(=O)c(=O)n3C)cc1 (stereo not given)	115	96	2	111
CCOC(=O)c1cc(-c2cccs2)nn1-c1ccc(F)cc1	90	95	0	·
Fc1ccc(-c2nc3ccc4ccccc4c3c3c2CCC3)cc1	104	86	·	105
Cc1c(C(=O)Nc2ccc(F)c(F)c2)oc2ccc(S(=O)(=O)N3CCC4(CC3)OCCO4)cc12	110	82	·	102
CCOc1ccc(CNC(=O)CCC(=O)N2CCSc3ccccc32)cc1	94	85	·	105
Cc1cccc(-c2noc(-c3ccc(NC(=O)C4CC(=O)N(Cc5ccccc5)C4)cc3)n2)c1 (stereo not given)	·	·	-7	105
Cc1cccc(N2CCN(C(=O)C3CCCN(S(=O)(=O)c4ccc5c(c4)oc(=O)n5C)C3)CC2)c1C (stereo not given)	110	88	-36	105
Cc1[nH]c(C(=O)N2CCC(CC(=O)NCc3ccc(Cl)cc3)CC2)c(C)c1C(=O)OC(C)C	·	·	-7	108
COCc1cc(C)nc2sc(C(=O)Nc3ccc4c(c3)OCO4)c(N)c12	100	91	-38	103
CCc1ccc(NC(=O)Cn2cnc3c(nc4n3CCCCC4)c2=O)cc1	87	99	-6	108
CCOc1ccc(CCNC(=O)c2cc3c(=O)[nH]c4ccc(C)cc4c3s2)cc1OCC	109	87	-14	109
CCCn1c(SCc2nc(N)nc(Nc3ccc(C)cc3)n2)n[nH]c1=O	66	93	-27	·
O=C(O)CCCn1cc(NC(=O)CCc2ccccc2)cn1	104	92	-37	105
COc1cccc(N2CCN(C(=O)C3CCN(S(=O)(=O)c4cccc5nonc45)CC3)CC2)c1	110	83	·	109
N#Cc1c(-c2cccs2)cc(-c2cccs2)nc1N	95	87	-42	100

Further results.
SMILES	Sa growth inh	Sa growth inh second temp	HCMV UL50-53 inh	GIV-Gai inh
Cc1cc(NC(=O)Nc2nnc(N3CCCCCC3)s2)ccc1Br	114	96	-18	97
CC(C#N)N1CCN(C(c2ccccc2)c2ccccc2)CC1 (stereo not given)	105	86	-25	·
O=C(NCCO)c1ccc(N2C(=O)CCC2=O)cc1	114	109	-13	101
Cc1onc(-c2ccccc2)c1-c1nc(CSc2nc3ccccc3[nH]2)no1	107	94	-17	103
O=C(CN1CC(C(=O)N2CCOCC2)Oc2ccccc21)NCCc1c[nH]c2ccccc12 (stereo not given)	103	101	11	·
Cc1csc(=O)n1CC(=O)OCc1nnc(-c2ccc(Cl)cc2)o1	102	65	-40	·
CCOC(=O)c1cc(=O)c2cc(Cl)ccc2o1	103	99	-24	101
O=C(NCc1ccco1)c1ccc2c(Cl)c3c(nc2c1)CCC3	118	100	-1	107
CCOC(=O)/C(C#N)=C1\SCC(C)(O)N1c1c(F)cccc1F (stereo not given)	115	98	-8	108
Fc1ccc(-c2cn3c4ccccc4n(CCN4CCCC4)c3n2)cc1	·	·	-1	99
Cc1cccc(-c2[nH]c(C(C)(C)C)nc2-c2ccc3nccnc3c2)n1	·	·	-52&-74	106
COC(=O)c1cc2cccc(OC)c2oc1=O	105	98	-129	104
O=C(c1ccc2nc[nH]c2c1)N1CCc2ccccc2C1	106	90	-27	·
CCOc1ccc(C2C(C#N)=C(C)NC3=C2C(=O)CC(c2ccc(Cl)cc2)C3)cc1OC (stereo not given)	·	·	-27	103
Cc1ccc(-n2nc(C(=O)N3CCCCC3)c(=O)n(C)c2=O)cc1	93	90	·	104

Single records, from the list above. Order of values: Sa growth inh | Sa growth inh second temp | HCMV UL50-53 inh | GIV-Gai inh
`Cc1ccc(-n2nc(C(=O)N3CCCCC3)c(=O)n(C)c2=O)cc1` as listed: 93 | 90 | · | 104
`Cc1cc(NC(=O)Nc2nnc(N3CCCCCC3)s2)ccc1Br` as listed: 114 | 96 | -18 | 97

(list continues)
SMILES	Sa growth inh	Sa growth inh second temp	HCMV UL50-53 inh	GIV-Gai inh
Cc1ccn2c(NC(=O)C3CCCCC3)c(-c3ccc(F)cc3)nc2c1	127	87	·	98
S=C(NCc1ccccc1)NN=C1CCCC1	100	87	-24	·
CC(C)[C@H](NS(=O)(=O)c1ccc2c(c1)OCCO2)C(=O)NC1CCCCCC1	92	94	-26	·
O=C(CN1C(=O)CC(c2ccccc2)Sc2ccccc21)Nc1cccc(Cl)c1 (stereo not given)	113	89	-25	100
CCc1ccc(NC(=O)c2cnn(-c3c(C)cccc3C)c2C2CCNCC2)cc1	101	100	·	102
O=C(CSc1ccccc1)c1ccccc1Br	75	37	-4	·
FC(F)(F)COc1nc(N2CCCCC2)nc(N2CCN(c3ccccc3)CC2)n1	73	93	0	·
Cc1nc2ccc(Cl)cc2cc1C(=O)O	89	75	-24	105
CCc1ccccc1NC(=S)N(Cc1cccc(C)c1)c1cccnc1	100	77	·	98
CC1=CC(=O)C=CC1=N/C(=N\S(=O)(=O)c1ccc(C)cc1)c1ccccc1	104	58	·	99
Cc1ccc(S(=O)(=O)c2nc(C(C)(C)C)oc2NCc2ccccc2)cc1	130	97	-3	102
COCCN1C(=O)c2oc3ccccc3c(=O)c2C1c1ccc(OC)c(OC)c1 (stereo not given)	113	91	·	104
O=S(=O)(Cc1noc(-c2ccc(Cl)cc2)n1)Cc1ccco1	103	93	-2	110
CCCC(=O)N(Cc1nc2nc(C)cc(C)n2n1)c1ccc(OCC)cc1	·	·	3	109
COc1ccc2[nH]cc(NC(=O)NCc3ccncc3)c(=O)c2c1	103	83	-28	100
CC1=CC(C)C2(COC(CN3CCCCC3)OC2)C(C)C1 (stereo not given)	101	81	-213	102
COc1ccc(OC)c(NC(=O)C2CCCN(S(=O)(=O)c3ccc4[nH]c(=O)ccc4c3)C2)c1 (stereo not given)	108	72	·	107
Cc1c(Cl)cccc1NC(=O)c1ncn(-c2ccccc2)n1	104	90	-5	108
Cc1nc(N)sc1Cc1ccc2c(c1)OCO2	100	90	-13	·
Cc1nc(-c2ccc3c(c2)CCN3c2ncnc3sccc23)cs1	91	90	-8	·
Cc1[nH]cnc1CN1CCN(C/C=C/c2ccccc2)CC1	101	102	-7	105
Cc1cccc2nc(-c3cccc(NC(=O)C(C)C)c3)cn12	83	78	·	100
O=C(c1ccc(Br)o1)N1CCN(c2ccccc2F)CC1	95	98	12	·
COc1ccc(NCC(=O)N/N=C/c2c(C)nn(-c3ccccc3)c2N2CCCC2)cc1	105	83	-4	·
Cc1cccc(-c2noc(-c3ccccc3OCC(=O)Nc3nccs3)n2)c1	·	·	-21	98
Cc1cc(NC(=O)C(C)(C)C)no1	87	93	-17	·
O=C1CCC(=O)N1c1nc2n(n1)C(c1ccc(F)cc1)C=C(c1ccccc1)N2 (stereo not given)	·	·	-34	99
CCOC(=O)C1CCN(S(=O)(=O)c2ccc3c(c2)NC(=O)C(C)C(=O)N3)CC1 (stereo not given)	108	99	8	98
CN1C(=O)CSc2ccc(NC(=O)N3CCN(c4ccccc4)CC3)cc21	112	77	·	101
CCC(CC)COC(=O)C1=C(C)NC(=O)CC1c1ccccc1Cl (stereo not given)	·	·	-18	97
Clc1ccc(NCn2nnc3ccccc32)cc1	92	95	-30	·
CC(C)SC(=O)c1scc(S(C)(=O)=O)c1Cl	109	92	-5	96

Entries shown so far with an aryl methoxy group:
SMILES	Sa growth inh	Sa growth inh second temp	HCMV UL50-53 inh	GIV-Gai inh
COc1ccc2c(CC(=O)OCC(=O)C(C)(C)C)coc2c1	102	94	8	·
COc1ccc(COC(=O)C2=C(C)NC3=C(C(=O)CCC3)C2c2coc3ccc(C)cc3c2=O)cc1 (stereo not given)	·	·	16	109
COc1ccc(C(=O)Nc2ccccc2-c2nc(-c3cccc(C)c3)no2)cc1	·	·	-32	106
COc1ccc(C)cc1NC(=O)Cn1cc(C(=O)c2ccncc2)c(=O)c2cc(Cl)ccc21	·	·	-13	104
COc1ccc(C2CC(=O)c3cc(-c4nc(-c5cccc([N+](=O)[O-])c5)cs4)c(=O)n(-c4cccc(C)c4)c3C2)cc1 (stereo not given)	92	81	0	104
COc1ccc(/C=C/c2onc3ccccc23)cc1	·	·	-6	107
COc1cccc(N2CCN(C(=O)C3CCN(S(=O)(=O)c4cccc5nonc45)CC3)CC2)c1	110	83	·	109
COC(=O)c1cc2cccc(OC)c2oc1=O	105	98	-129	104
CCOc1ccc(C2C(C#N)=C(C)NC3=C2C(=O)CC(c2ccc(Cl)cc2)C3)cc1OC (stereo not given)	·	·	-27	103
COCCN1C(=O)c2oc3ccccc3c(=O)c2C1c1ccc(OC)c(OC)c1 (stereo not given)	113	91	·	104
COc1ccc2[nH]cc(NC(=O)NCc3ccncc3)c(=O)c2c1	103	83	-28	100
COc1ccc(OC)c(NC(=O)C2CCCN(S(=O)(=O)c3ccc4[nH]c(=O)ccc4c3)C2)c1 (stereo not given)	108	72	·	107
COc1ccc(NCC(=O)N/N=C/c2c(C)nn(-c3ccccc3)c2N2CCCC2)cc1	105	83	-4	·
